D2 potentiator: human D2 receptor positive allosteric modulation. potentiation, % (test concentration not listed). AID 624464. hit rate 0.23% among 360,000. DiscoveRx D2 beta-arrestin cells, luminescence, 90 min; 100% = 57 uM dopamine signal; active = potentiation of 50% or more; inconclusive = 30% to 50%; inactive = 30% or less;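 note: compound concentration not given in the record; tested on top of an EC20 dose of dopamine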
Target sequence (P14416 whole entry, looked up): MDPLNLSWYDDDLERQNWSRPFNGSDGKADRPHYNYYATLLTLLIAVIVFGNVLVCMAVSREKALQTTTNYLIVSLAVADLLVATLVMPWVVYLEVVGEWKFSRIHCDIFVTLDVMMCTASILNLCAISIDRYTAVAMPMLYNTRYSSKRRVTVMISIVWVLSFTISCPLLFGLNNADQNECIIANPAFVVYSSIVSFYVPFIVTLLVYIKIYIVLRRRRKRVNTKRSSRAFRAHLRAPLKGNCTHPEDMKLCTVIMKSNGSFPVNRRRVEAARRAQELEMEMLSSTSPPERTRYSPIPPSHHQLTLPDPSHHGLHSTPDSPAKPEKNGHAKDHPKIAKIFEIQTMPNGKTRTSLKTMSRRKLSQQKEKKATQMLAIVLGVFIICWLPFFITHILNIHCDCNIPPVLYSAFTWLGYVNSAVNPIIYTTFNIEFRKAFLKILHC
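PathHunter beta-arrestin assay in DiscoveRx D2 cells. Compounds were added with an EC20 of dopamine (50 nM final) for 90 min at 37 deg C. Luminescence was read 1 h after detection reagent, with 57 uM dopamine as the EC100 control.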
Menin-MLL FL inh: inhibitors of human menin-MLL interaction, wild-type MLL peptide. Fluorescence polarization, fluorescein-MLL peptide displacement from menin. FP activity change, % at 61.4 µM. 290,000 tested, under 10 active; inconclusive = falling polarisation curve, or a change in total fluorescence; inactive = total fluorescence flat and polarisation flat or rising; no compound was filed as active; the % refers to the polarisation; negative = inhibition;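 note: % of control where 0% means no effect; inhibitors lower the polarisation; unlabelled MLL peptide was the positive control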
ClpP mod: qHTS Assay for Activators of ClpP. ATP-dependent Clp protease proteolytic subunit (Bacillus subtilis (strain 168)), P80244. purified B. subtilis ClpP, FRET peptide cleavage, 20 min. Potency, µM (titrated, usually from 57.5 µM), for inactives: at the highest dose activity change, negative = active. hit rate 1.9% among 340,000; active = well fitted falling curve with a large enough effect; inconclusive = small, poorly fitted or top-dose-only effect; inactive = no such curve, though single readings can be large or run the other way; note: potency is the fitted concentration of half-maximal effect; the source files actives as falling curves though it sought activators and does not explain the sign; nearly all actives have a fitted effect of over 65% in size; many hits overshoot -100%
Target sequence (P80244 whole entry, looked up): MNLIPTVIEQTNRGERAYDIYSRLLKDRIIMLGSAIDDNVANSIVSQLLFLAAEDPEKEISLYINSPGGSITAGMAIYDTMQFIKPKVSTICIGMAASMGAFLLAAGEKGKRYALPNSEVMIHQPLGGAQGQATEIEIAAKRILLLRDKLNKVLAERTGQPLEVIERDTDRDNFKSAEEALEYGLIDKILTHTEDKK
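Purified B. subtilis ClpP, 10 microg/mL final in Tris/HCl pH8 with KCl, BSA, glycerol and Tween-20, cleaved an Abz/nitrotyrosine-quenched decapeptide. Fluorescence (ex 320, em 430) was read at 0 and 20 min at room temperature. Delta was normalized to 5.8 microM ADEP and DMSO/no-enzyme controls.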
Sfp inh: blocks B. subtilis Sfp PPTase activity. hit rate 3.5% among 310,000. Biochemical Sfp PPTase activity, qHTS. Potency, µM, for the others: max response, negative = inhibition, most hits filed as inhibitors. Q9F4F7; active = well fitted inhibition curve with a large enough effect; inconclusive = small, poorly fitted or top-dose-only effect, or another doubt; inactive = no such curve, though single readings can be large or run the other way;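 note: the enzyme is Sfp with the accession as filed and its product quenches rhodamine fluorescence; potency is the fitted concentration of half-maximal effect; 0% = enzyme reaction without inhibitor and -100% = no enzyme wells; top concentration of the series not given in the record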
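Fluorescence-quenching assay with 15 nM Sfp, 5 uM rhodamine-CoA and 12.5 uM BHQ-2-labelled ybbR peptide in pH 7.6 Hepes/MgCl2 buffer. Enzyme was pre-incubated with compound for 15 min at room temperature. Rate was taken from the 30-min fluorescence change (525/598 nm).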
gsp antag: antagonists of gsp mutant (McCune-Albright syndrome). hit rate 0.4% among 340,000. Potency, µM (titrated, usually from 76.9 µM), for the others: at the top dose activity change, negative = inhibition, most hits filed as inhibitors. gsp-mutant cells, cAMP HTRF, 30 min; control for the full effect not named in the record; active = falling curve of any shape with a large fitted effect; inconclusive = falling curve, mostly with a smaller effect; inactive = flat or rising curve; cell line not stated here;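 note: intracellular cAMP measured with PDE inhibitor Ro 20-1724 present during compound exposure; potency is the fitted concentration of half-maximal effect; % is set by controls: 0 for no effect and ±100 for the full control effect; nearly all actives have a fitted effect of over 65% in size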
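Cells, 2000/well, grown 16–24 h in DMEM 10% FBS with 0.5 mg/ml G418, then compounds plus […] (300 uM addition stock), 30 min at 37C. cAMP read by HTRF (cAMP-d2 and anti-cAMP antibody-K in lysis buffer) after 30 min RT.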
TRPV1 potentiator: enhances activation of the human vanilloid receptor TRPV1; Q8NER1; TRPV1-expressing cells, Fluo-8 calcium influx, capsaicin EC20 potentiation; host cell line not named in the record; control for the full effect not named in the record; potentiation, % at 8.33 µM; hit rate 0.02% among 320,000; AID 540277; active means potentiation above 80%; inconclusive means 30% to 80%; inactive means below 30%; note: 0% is about no effect
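TRPV1-expressing cells were cultured overnight at 35.5C and loaded with Fluo-8 calcium dye for 40 to 90 min at room temperature. After a 10 s baseline, compound was added and calcium influx was read kinetically for 3 min (ex 480/em 520 nm).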
gsp agonist: gsp mutant agonism; gsp mutant cells, cAMP HTRF, 30 min; control for the full effect not named in the record; Potency, µM (titrated, usually from 76.9 µM), for the others: at the highest dose activation (cAMP increase), most hits filed as activators; hit rate 0.13% among 340,000; active = well fitted activation curve with a large enough effect; inconclusive = small, poorly fitted or top-dose-only effect, or another doubt; inactive = no such curve, though single readings can be large or run the other way; cell line not stated here;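 note: phosphodiesterase inhibitor Ro 20-1724 added with compounds to block cAMP breakdown; potency is the fitted concentration of half-maximal effect; nearly all actives have a fitted effect of over 60% in size; about a fifth of the inactives were tested at one dose only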
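Cells stably selected in G418 were plated at 2000/well, grown 16-24 hr, then given compounds in DMSO with the PDE inhibitor […] (300 uM solution added) for 30 min at 37C; cAMP was read by HTRF.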
Active calls of the source: *; ? = inconclusive; · = no result given; & = joins results of further samples; [ ] = another dose, or the depositor's remark.

The first 3 entries as a preview:
SMILES	D2 potentiator	Menin-MLL FL inh	ClpP mod	Sfp inh	gsp antag	TRPV1 potentiator	gsp agonist
COc1ccc(C(=O)Nc2ccnn2C2CCN(C(=O)c3cccnc3)CC2)cc1	-2.5	·	-3.3%	21.9%	-10.6%	5.6	1.7%
CCN(CC)c1ccc(S(=O)(=O)N2CCCCC2)cc1NC(=O)C1=COCCO1	-4.0	·	-1.5%	·	-15.5%	-11.1	7.3%
COc1ccc(NC(=O)c2c(N)no[n+]2[O-])cc1	1.1	1.4	·	7.2%	12.3%	0.5	-1.1%[15.4 µM]

Main list, repeating the preview:
SMILES	D2 potentiator	Menin-MLL FL inh	ClpP mod	Sfp inh	gsp antag	TRPV1 potentiator	gsp agonist
COc1ccc(C(=O)Nc2ccnn2C2CCN(C(=O)c3cccnc3)CC2)cc1	-2.5	·	-3.3%	21.9%	-10.6%	5.6	1.7%
CCN(CC)c1ccc(S(=O)(=O)N2CCCCC2)cc1NC(=O)C1=COCCO1	-4.0	·	-1.5%	·	-15.5%	-11.1	7.3%
COc1ccc(NC(=O)c2c(N)no[n+]2[O-])cc1	1.1	1.4	·	7.2%	12.3%	0.5	-1.1%[15.4 µM]
CCOC(=O)c1nnn(-c2nonc2NC(C)=O)c1C	10.5	-0.8	-1.9%	1.4%	3.2%	-2.1	9.9%
COc1ccccc1OCCn1cc(/C=N/n2cnnc2)c2ccccc21	-7.8	0.4	?	-2.2%	0.7%	-1.5	-3.7%[15.4 µM]
Cn1c(OCc2ccc3c(c2)OCO3)nc2c1c(=O)n(Cc1cccc(Cl)c1)c(=O)n2C	-10.7	·	-0.4%	·	-12.3%[15.4 µM]	·	20.1%
COc1ccc(-c2c(C)cc3oc(=O)cc(-c4ccccc4)c3c2C)cc1	0.9	-0.1[94.6 µM]	-19.1%	-11.6%	-12.0%	·	·
O=C(CSc1cccc2cccnc12)OCC(=O)c1ccc(Br)cc1	3.9	11.6	29.3%	-24.5%	0.3%	·	-0.1%
O=C(Cn1cnc2ccccc2c1=O)NNC(=O)c1ccccc1F	-3.2	·	-6.4%	·	4.4%	·	8.1%[15.4 µM]
O=S(=O)(c1ccc(N2CCN(S(=O)(=O)c3ccc4c(c3)OCCO4)CC2)nc1)N1CCCC1	7.6	0.1	-18.8%	16.7%	2.4%	-1.1	1.1%
COc1ccc(C2(c3ccc(OC)cc3)NC(=O)N(CC(=O)N(C)C)C2=O)cc1	-0.8	0.3	·	5.7%	-0.1%	0.0	?
CC(C)C[C@@H]1NC(=O)[C@H](C(C)C)NC(=O)c2cc([N+](=O)[O-])cc(I)c2NCC[C@@H](C(N)=O)NC1=O	-6.5	1.1	0.4%	-0.1%	-10.1%	15.6	·
Cc1cccc(C)c1NC(=O)C(=O)NCC1CCCN1S(=O)(=O)c1cccs1 (stereo unspecified)	1.7	·	·	·	-1.9%	7.7	-1.6%[15.4 µM]
NC(=O)C(NN=C(c1ccccc1)c1ccccc1)c1ccccc1 (stereo unspecified)	-8.6	·	1.4%	·	·	·	-37.7%
CCCCC[C@H](O)/C=C/C1=C(CCCCCCC(=O)O)C(=O)CC1	-6.8	5.0&-4.0	-1.2%	10.2%&14.7%&-5.3%	-16.1%	-6.2	·
Cc1ccc(-c2ccc(SCC(=O)N3CCN(c4ccccc4)CC3)nn2)cc1	5.7	?	1.0%	-13.9%	11.3%	-5.3	2.5%[15.4 µM]
Cc1nc2c(-c3ccc(F)cc3)cnn2c2c1CCC2	-0.8	0.8	·	15.6%	-10.4%	-2.5	20.4%
Cc1ccnc(NC(=S)NC(=O)/C=C/c2ccco2)c1	-14.6	?	6.8%	-15.3%	7.0%	1.7	15.8%
C=CCn1c(SCc2ccc(Cl)cc2)nc2c1c(=O)[nH]c(=O)n2C	-27.8	3.1	1.2%	0.9%	8.7%	12.6	-1.7%
CCCn1cc(CN2CCc3ccc(NC(=O)C4CCCO4)cc3C2)c(C)n1 (stereo unspecified)	-8.8	·	-4.9%	9.5%	9.7%	-3.8	-0.3%[15.4 µM]
O=C(COC(=O)c1cc(-c2ccccc2Cl)nc2ccccc12)Nc1ncc(C(F)(F)F)cc1Cl	-10.8	2.7	-4.9%	39.8µM*	-0.4%	1.6	?
CCC(=O)C1=C(N2CCCC2)CC(C)(C)CC1=O	7.9	-2.3	-0.6%	17.7%	-1.5%	-7.3	20.1%
COc1ccc(N(CC(=O)Nc2ccc(C)c(C)c2)S(=O)(=O)c2c(C)n[nH]c2C)cc1	-24.6	1.5	-2.8%	10.5%	?	-8.1	-25.9%
COc1ccccc1N1CCN(C(=O)CSc2nc3ccccc3o2)CC1	-14.0	4.6	-1.2%	-20.6%	-25.9%	7.0	6.9%
COc1cccc(NC(=S)NCc2cccnc2)c1	-11.4	-1.0	-1.4%	12.3%	11.6%	-3.8	-8.8%
CS(=O)(=O)N(CC(=O)Nc1ccccc1C(=O)NCc1ccco1)c1ccc2c(c1)OCCO2	-13.0	-0.4	-4.9%	8.0%	-3.0%	-1.7	17.4%
O=C(Oc1ccc2c(=O)c(Oc3ccc4ccccc4c3)coc2c1)c1cncc(Br)c1	0.1	-0.1	-4.9%	-2.4%	-1.3%	-18.5	-3.6%
COC(=O)c1cc2ccsc2n1CC(=O)Nc1ccc(N(C)C)cc1	-21.6	-2.2	-16.5%	-6.3%	4.9%	8.0	?
Cc1oc2cc3oc(=O)c(CC(=O)NCCC(=O)O)c(C)c3cc2c1C	-3.0	4.5	·	8.4%	8.0%	-17.0	32.7%
Cc1ccc(-n2ncc3c(=O)[nH]cnc32)c(C)c1	-6.4	-2.1	-3.9%	12.1%	1.8%	5.5	29.3%
COCCNc1nnc(SC(C)C(=O)Nc2ccc(-c3nc4ccc(C)cc4s3)cc2)s1 (stereo unspecified)	-3.4	12.1	17.8µM*	9.1%	2.3%	6.8	?
O=C(N/N=C/c1cccnc1)c1cccc(Br)c1	0.3	-2.3	1.7%	4.0%	-3.6%	-23.8	-48.9%[inhibitor]
COc1cccc(NC(=O)CN(C)C(=O)CCNS(=O)(=O)c2ccc(C)cc2)c1	-4.7	·	-2.2%	·	2.1%	0.0	-1.0%
COc1ccc(C(=O)CSc2nc3cccnc3n2C)cc1	1.3	0.9	0.1%	8.3%	24.0%	-1.0	-5.9%
COc1ccc(CN(C)C[C@@H]2OCCCC[C@H](C)Oc3ccc(NC(=O)Cc4ccccc4)cc3C(=O)N([C@@H](C)CO)C[C@@H]2C)cc1	-3.1	·	-1.1%	·	·	·	?
O=C(NCc1ccc(Cl)cc1)C(=O)NCC1OCCN1S(=O)(=O)c1ccc2c(c1)OCCO2 (stereo unspecified)	0.2	7.0	-1.6%	1.7%	0.7%	8.4	0.2%
O=C(Nc1ccccc1C(=O)O)c1cc(S(=O)(=O)NCc2ccccc2)ccc1Cl	24.7	0.4	·	16.3%	-27.0%	2.0	-5.9%
O=C(COC(=O)Cc1ccsc1)NC1CCCCCC1	-10.8	0.3	-2.9%	10.5%	10.5%	1.1	4.7%
CC1(C)CCC(=O)N(c2ccccc2)C1=O	1.5	4.7	-0.9%	11.8%	-1.7%	1.3	-6.5%[15.4 µM]
O=C(N/N=C/C=C/c1ccccc1)c1cccc(Br)c1	-15.4	0.4	-1.9%	?	-5.9%	-18.3	-2.3%
COc1cc(SC)ccc1C(=O)Nc1ccccn1	9.2	0.7	·	-4.9%	?	-7.0	?
c1ccc(-c2nn3c(-c4ccco4)nnc3s2)nc1	-0.2	6.2	0.1%	5.5%	6.0%[15.4 µM]	4.6	28.3%
Clc1cccc(Cl)c1CO/N=C/c1cccs1	-4.7	1.4	·	9.6%	0.0%	4.3	2.0%[15.4 µM]
Cc1cccc(C)c1NC(=O)CN(C)CC(=O)Nc1ccccc1Oc1ccccc1	-5.6	-0.6	·	-4.1%	-6.2%	-14.3	9.2%[15.4 µM]
Cc1ccc(S(=O)(=O)N2CCCC2C(=O)NCc2ccco2)cc1 (stereo unspecified)	-10.1	3.6	-0.7%	?	-1.6%	1.8	-76.2%[inhibitor]
FC(F)(F)c1cc(C(F)(F)F)c2ccc(N3CCOCC3)nc2n1	-0.1	2.8	·	15.8%	5.0%	-15.1	-41.8%[inhibitor]
CCN1C(=O)/C(=C\N2CCN(C)CC2)SC1=S	3.3	0.0	-1.2%	5.1%	-5.0%	5.6	-34.7%[inhibitor]
CCOC(=O)c1cnn(Cc2ccccc2Cl)c1N	-0.2	-0.5	0.0%	18.4%	2.2%	-10.1	-50.8%[inhibitor]
CCOc1ccccc1C(=O)Nc1cc(C(=O)NCCc2ccccc2)ccc1Cl	-9.8	-1.0	-12.2%	11.2%	-1.2%	24.9	-3.5%
COc1cc(NC(=O)CN2C(=O)COc3ccc(S(=O)(=O)N4CCCC4)cc32)cc(OC)c1	-0.1	0.6	-2.4%	1.6%	-6.3%	1.0	-26.6%
CC(C)(C)NC(=O)CN(Cc1ccccc1)S(=O)(=O)c1ccccc1	-13.4	-2.9	-2.4%	13.3%	5.8%	-26.5	-22.1%[15.4 µM]
COC(=O)CN(C(=O)CSc1nnc(-c2cccc(OC)c2)o1)c1ccc(OC)cc1	16.1	-2.0	15.8µM*	-1.7%	2.1%	21.3	-15.7%
CC(=O)c1ccc(-c2nc3ccccc3n2C)o1	-12.4	0.8	19.5%&4.4%	39.8µM*	3.3%	0.2	?
C/C(=N\NC(=O)C1CCCC1)c1ccc(Cl)cc1Cl	-11.0	·	0.6%	13.6%	0.4%	-2.0	-39.8%[inhibitor]
O=C(Nc1nc2ccccc2n1CCN1CCOCC1)c1cn(-c2ccccc2)nc1-c1ccccc1	-25.6	1.9	-27.3%	18.5%	-11.1%	-7.5	2.4%

Compound activity deposited in PubChem by National Center for Advancing Translational Sciences (NCATS).
